From PubChem BioAssay
NPYLR7 ag – activates Aedes aegypti NPYLR7 receptor. HEK293T NPYLR7/Galpha15, GCaMP6s calcium fluorescence. activation, % at 10 µM. 270,000 compounds, 0.15% hits; in the data active = activation above about 40%;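 also: 0% = vehicle and 100% = reference agonist at the receptor; some compounds past the cut are filed as inactive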
NPYLR7 ag max-min – recorded beside NPYLR7 ag, whose call it bears; activation, %; measured here: Max-Min RFU normalised activation; some inactives read as strong as hits;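 span of the calcium signal over five minutes; 0% = vehicle and 100% = native peptide agonist; compound fluorescence can raise it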
* marks the source's active call; other numbers are inactive results; & = joins results of further samples.

Each structure is followed by: NPYLR7 ag, NPYLR7 ag max-min
1	OC(CN1CCNCC1)Cn1c2ccccc2c2ccccc21 (stereo not drawn)
    0, 0
2	O=C(c1c(F)cccc1Cl)N1CCOC(COCc2cccc(C(F)(F)F)c2)C1 (stereo not drawn)
    4, 1
3	Cc1cc(-c2ccc(-c3ccn[nH]3)cc2)cnc1-n1cnnc1
    -4, -3
4	Clc1ccc(-c2cnnc(N3CCC(OCc4ccccn4)CC3)n2)cc1
    4&-5, 1&-7
5	CN1OCC(S(=O)(=O)NCCCN2CCCC2=O)C1c1ccc(F)c(Cl)c1 (stereo not drawn)
    6, 4
6	N#Cc1c(N)nc2c(c1-c1ccco1)CCCCC2
    6, 4
7	COCc1ccc(C(=O)NCc2cccnc2N(C)C2CCCCC2)o1
    6, 4
8	CC(C)c1ccc(/C=C(\C#N)C(=O)Nc2cccc(Br)c2)cc1
    3, 2
9	CC(=O)C1=C(c2ccc(C(C)(C)C)cc2)N(C(C)=O)n2c(C)nnc2S1
    7, 3
10	NCCC1CCCC(CCN)N1 (stereo not drawn)
    9, -49
11	CN(C)C=Nc1sc2c(c1-c1nc3ccccc3s1)CCCC2
    7, 12
12	Cc1cnn(Cc2ccc(NC(=O)NCC3CCCC3O)cc2)c1 (stereo not drawn)
    0, -2
13	CCN(CC)c1ccc(/C=C2/NC(=S)NC2=O)cc1
    3, -1
14	Cc1nc(CCC(=O)N2CCc3c(nc(N(C)C)nc3N(C)C)C2)n[nH]1
    -1, -2
15	C#CCNC(=O)C[C@@H]1C[C@@H](C(C)C)[C@H](CNC(=O)COC)C=C1C
    -10, -11
16	NC(=O)c1c(NC(=O)CSc2ncnc3sc4c(c23)CCC4)sc2c1CCCC2
    0, -3
17	Nc1cc(-c2ccc(Cl)c(Cl)c2)nn1-c1ccc(C(=O)NCCNc2cccc3ccccc23)cc1
    0, -3
18	CC(=O)N(CCN1CCOCC1)CC(=O)N(Cc1ccc2c(c1)OCO2)Cc1sccc1C
    -4, 9
19	CC1(C)ON=C(c2ccc3c(c2)OCO3)NC1=O
    6, 2
20	CCN(CC)c1cc(C)nn2cnnc12
    0, 25
21	Cc1ccsc1CN(C)C(=O)c1cc(CC(C)C)nc(N)n1
    -1, -3
22	CCN1CC(C)(C)CN(C(=O)COc2ccccc2)CC1=O
    32, 32
23	C=CCn1c(SCC(=O)NCCc2ccc(OC)c(OC)c2)nc2sc(C)c(C)c2c1=O
    -10, -15
24	O=C(c1ccccc1)N1CCC(NCCN2CCc3ccccc32)CC1
    20, 7
25	CCCCCCc1ccc(C(=O)N(CC(=O)N2c3ccccc3-n3cccc3C2c2ccc(OC)cc2)C2CC2)cc1 (stereo not drawn)
    -3, 6
26	O=C(NCCCc1ccccc1)C(=O)NCCC1CCCCN1S(=O)(=O)c1ccc(Cl)cc1 (stereo not drawn)
    -6, -5
27	COc1ccc(CC(=O)Nc2cccc(-c3ccc(=O)n(C)n3)c2)cc1
    2, 3
28	CCc1nc(C)sc1CNC(=O)Cc1c[nH]c(=O)n(C)c1=O
    20, 14
29	O=C1CCCC2=Nc3ccccc3SC12 (stereo not drawn)
    -2, -2
30	COc1ccccc1-c1cc(C(=O)NCCN2CCOCC2)nc2cc(C(C)(C)C)nn12
    -10, -6
31	O=c1[nH]c(CN2CCN(S(=O)(=O)c3ccccc3F)CC2)nc2ccccc12
    3, 8
32	CC1=NN(C(N)=O)C2(O)CC3C(C12)C3(C)C (stereo not drawn)
    1, -1
33	COc1cc(-c2cc(C)c3cccc(OC)c3n2)cc2c1OCCN(CC(N)=O)C2
    8, 0
34	CCC(C(=O)NC(C(=O)Nc1nnc(-c2ccc(Br)cc2)s1)C(C)CC)c1ccccc1 (stereo not drawn)
    24, 23
35	O=C(CSc1nnc(C2CC2)n1C1CC1)c1cc(F)ccc1F
    0, 22
36	Cc1ccn2c(NC(=O)CC(C)(C)C)c(-c3ccccc3C)nc2c1
    -3, 3
37	CCCC12CN3CC(C)(CN(C1)C31C(=O)Nc3ccc(Br)cc31)C2=O (stereo not drawn)
    3, 1
38	Cc1cnc(C)c(N2CCC(CCC(=O)NC3CCN(Cc4ccccc4)C3)CC2)n1 (stereo not drawn)
    3, 3
39	Cc1cc(C(=O)NCC2CCN(C(=O)C(F)(F)F)CC2)sc1C
    2, 2
40	O=C(c1ccc(=O)[nH]n1)N1CCCC2(CCNCC2)CC1
    6, 3
41	Cc1nnsc1CN(C)Cc1ccc(C(=O)Nc2nc(C)n(C)n2)cc1
    11, 10
42	Cc1cnc(C(=O)NCCN2C(=O)SC(=Cc3cccs3)C2=O)cn1
    1, -2
43	CCC(Sc1ncc(S(=O)(=O)c2ccccc2)c(N)n1)C(=O)Nc1cc(C)ccc1C (stereo not drawn)
    26, 29
44	COc1ccc(NS(=O)(=O)c2ccc(Br)cc2F)cn1
    -1, -1
45	O=C(c1ccc(C(F)(F)F)cc1)N1CCCC(OCc2ccc(F)cc2F)C1 (stereo not drawn)
    -3, -2
46	CCc1nc2ccc(C(=O)NCCCN(C)C)cn2c1N(CC)Cc1ccc(OC)c(OC)c1
    7, 10
47	COc1ccnc(CN2CCOC(c3ccc(Cl)cc3)C2)c1OC (stereo not drawn)
    0, -1
48	CC(=O)N1CCc2c(nc(N(C)C)nc2N2CCCN3CCC[C@H]3C2)C1
    7, 3
49	COc1ccc(-n2ncc(Oc3cccc(C)c3C)c(Nc3ccc(C(=O)N4CCN(C)CC4)cc3)c2=O)cc1
    4, 16
50	COC(=O)c1ccc2oc(=O)n(C3CCN(C(=O)c4ccnc(Cl)c4)CC3)c2c1
    0, -8
51	O=C(Nc1ccc(Br)cc1)N1CCSC1c1ccc(C(F)(F)F)cc1 (stereo not drawn)
    -1, 8
52	Cc1cc(C)n(CCN(C(=O)C2=COCCO2)c2nc3ccccc3s2)n1
    -16, -20
53	C=CCn1c(=O)c(C(=O)NCc2ccccn2)c(O)c2ccccc21
    6, 5
54	Cc1ccc(C2(O)CCN(C(=O)c3n[nH]c4c3CN(C)CC4)CC2)nc1
    1, -1
55	Cn1c(=O)c2c(SCC(=O)O)nc(-c3ccccc3Cl)nc2n(C)c1=O
    -6, -10
56	O=C(Nc1ccc(F)cc1)Nc1ccc(OC(F)F)cc1
    1, -3
57	CCOc1ccc(C2C(C(=O)c3cccs3)=C(O)C(=O)N2CCCn2ccnc2)cc1 (stereo not drawn)
    -1, 5
58	O=C(CCC1CCCN(C(=O)c2cc(C3CC3)[nH]n2)C1)N1CCN(Cc2ccccc2)CC1 (stereo not drawn)
    3, 1
59	O=C(c1cccs1)N1CCc2ccccc2C1c1ccccc1Cl (stereo not drawn)
    -4, -6
60	COc1cccc(C=C2N=C(c3cccc(F)c3)OC2=O)c1
    2, 10

(cont.)
Each structure is followed by: NPYLR7 ag, NPYLR7 ag max-min
61	CC(c1cccc(-c2cncc(C(=O)N3CCOCC3)n2)c1)N1CCCC1 (stereo not drawn)
    14, 12
62	O=C(COc1ccc(F)cc1F)N1CCN(c2ccc3nnc(-c4ccco4)n3n2)CC1
    2, 8
63	COc1ccc(C2SCC(=O)N2CC(=O)N2CCCC2)cc1OC (stereo not drawn)
    3, 6
64	COc1ccc(-c2ccc(=O)n(CCNS(=O)(=O)CCc3ccccc3)n2)cc1
    7, 6
65	Cc1cc2cc(CNC(=O)c3ccccc3)ccc2[nH]1
    4, 0
66	COc1cccc(C2CC(=O)Nc3c2c(C)nn3-c2ccc3nnc(C)n3n2)c1 (stereo not drawn)
    -2, -6
67	CNC(=O)NC(=O)C(C)Sc1nncc2ccccc12 (stereo not drawn)
    14, 12
68	O=C(O)C1(c2nc3ccccc3[nH]2)CC1c1ccccc1 (stereo not drawn)
    -3, -3
69	Cc1ccc(Nc2nc(-c3ccccc3)c3cc(Br)ccc3n2)c(C(=O)c2ccccc2)c1
    -17, -7
70	CC(=O)N1CCC2(CC1)OC(=O)C(C)=C2C(=O)N1CCN(C(=O)c2ccco2)CC1
    5, 2
71	O=[N+]([O-])c1cc(S(=O)(=O)NN=Cc2cc(Cl)cc(Cl)c2O)ccc1Cl
    5, -2
72	Cc1ccccc1CSc1nc(=O)n(Cc2ccccn2)c2c1CCC2
    -2, -4
73	CCc1cc(CN2C[C@@H](C(=O)O)C[C@@H](C(=O)Nc3ccc(F)cc3)C2)[nH]n1
    4, 4
74	Cc1ccc(CN(Cc2ccc(F)cc2)C(=O)CN(C(=O)c2ccco2)C2CC2)s1
    -3, 7
75	CN(Cc1noc2c1CCCC2)c1ncnc2c1CCN(C(=O)C1CC1)C2
    4, 0
76	CC1CCN(C(=O)CCNC(=O)OC(C)(C)C)C(C)C1 (stereo not drawn)
    4, 4
77	c1cncc(C2CN(Cc3cc4ccccc4[nH]3)C2)c1
    7, 2
78	FC(F)c1cc(C(F)F)[nH]n1
    -14, -16
79	Nc1ccc(NS(=O)(=O)c2ccc3c(c2)OCCO3)cc1
    -5, -6
80	COc1cc(C#N)ccc1Oc1ncccc1C(=O)O
    15, 15
81	CCN1CCN(Cc2cc(C(=O)N(C)CCc3ccccc3)no2)CC1
    16, 3
82	Clc1ccc2nc(CSc3ncccn3)cn2c1
    7, 6
83	N#Cc1c(F)cccc1NCC(O)COc1ccc2c(c1)CCC(=O)N2 (stereo not drawn)
    7, 5
84	O=C1COc2ccc(S(=O)(=O)N3CCCC3)cc2N1
    1, -5
85	COc1ccc(CN(CCc2c[nH]c3ccccc23)C(=O)CN(CC(C)C)C(=O)Nc2c(Cl)cccc2Cl)cc1OC
    21, 14
86	Cc1nnc2ccc(N3CCN(C(=O)NC4CCCCC4)CC3)nn12
    1, 7
87	Cc1cc(N2CCN(C(=O)c3ccco3)CC2)n2c(nc3ccccc32)c1C#N
    -4, -7
88	O=C(NCC12CC3CC(CC(C3)C1)C2)c1ccc2c(c1)OCCO2
    7, 7
89	Cn1nc(C(=O)NCC23CC4CC(CC(C4)C2)C3)ccc1=O
    0, 20
90	O=S(=O)(c1ccc(Cl)s1)N1CCCc2cccc(O)c21
    -1, 2

Some of these compounds in order of formula weight, falling:
Each structure is followed by: NPYLR7 ag, NPYLR7 ag max-min
81	CCN1CCN(Cc2cc(C(=O)N(C)CCc3ccccc3)no2)CC1
    16, 3
83	N#Cc1c(F)cccc1NCC(O)COc1ccc2c(c1)CCC(=O)N2 (stereo not drawn)
    7, 5
89	Cn1nc(C(=O)NCC23CC4CC(CC(C4)C2)C3)ccc1=O
    0, 20
76	CC1CCN(C(=O)CCNC(=O)OC(C)(C)C)C(C)C1 (stereo not drawn)
    4, 4
80	COc1cc(C#N)ccc1Oc1ncccc1C(=O)O
    15, 15
77	c1cncc(C2CN(Cc3cc4ccccc4[nH]3)C2)c1
    7, 2
78	FC(F)c1cc(C(F)F)[nH]n1
    -14, -16

Carrying on.
Each structure is followed by: NPYLR7 ag, NPYLR7 ag max-min
91	CC(NC(=O)CCCCN1Cc2ccccc2C1=O)c1ncn[nH]1 (stereo not drawn)
    -1, -6
92	O=C1Nc2c(Cl)cc(Cl)cc2C1=NN=Cc1ccc2c(c1)OCO2
    -3, 50
93	CCc1nc2c(OCc3ccc(Cl)cc3)cccn2c1N(C)C(=O)C1CC1
    -8, -7
94	Cc1csc(-c2cccc(NC(=O)C3CC(=O)N(C)C3)c2)n1 (stereo not drawn)
    -4, -5
95	COC(=O)c1c(C)[nH]c(C(=O)NCCc2ccco2)c1C
    -11, -12
96	COC(=O)c1c(NC(=O)c2ccco2)sc2c1C(C(=O)OC)CC2 (stereo not drawn)
    -7, -7
97	CCOC(=O)c1sc2ncnc(N3CCCC3)c2c1C
    -8, -10
98	CC(/C=C1\N=C(c2ccc(C)c([N+](=O)[O-])c2)OC1=O)=C\c1ccccc1
    0, 2
99	Fc1cccc(-c2cc3c(Nc4cccnc4)nccc3[nH]2)c1
    -2, -11
100	CN(Cc1ccccc1)C1CCCN(C(=O)c2ccc3c(c2)no[n+]3[O-])C1 (stereo not drawn)
    -3, -6
101	CC(C)N(CC(=O)N1CCc2sccc2C1COc1ccccc1F)S(=O)(=O)c1ccc(Cl)cc1 (stereo not drawn)
    -3, 1
102	Cc1ccc(NC(=O)C23CC4CC(CC(C4)C2)C3)c(C)c1
    -3, -6
103	Cc1ccccc1-c1cccc(C(=O)N2CC[C@H](CO)[C@@H](O)C2)c1
    -1, -3
104	CCC(C)N(CCC(=O)Nc1ccc(F)cc1)c1nc(Cc2cccc(OC)c2)ns1 (stereo not drawn)
    7, 17
105	COc1cccc(C(NC(=O)C2CCN(C/C=C/c3ccc(OC(C)=O)c(OC)c3)CC2)c2cnccn2)c1 (stereo not drawn)
    -12, -16
106	CN(C)CC1(O)CCN(C(=O)c2cc(-c3cccs3)n(C)n2)C1 (stereo not drawn)
    3, 2
107	C=CCNC(=O)C/C(C)=N/NC(=O)c1cccc(C)c1
    -1, -7
108	COc1ccc(NC(=O)C2Cc3ccccc3C2)c(NC(=O)C(C)C)c1
    8, 4
109	c1ccc(-c2ccc(-c3[nH]ncc3CN3CCN4CCCC4C3)cc2)cc1 (stereo not drawn)
    -2, -9
110	COc1ccc(N(C(=O)c2ccc(C)c(C)c2)C(C)C2CC2)cc1 (stereo not drawn)
    22, 17
111	O=C1NC(=S)N(S(=O)(=O)c2c(Cl)cccc2Cl)C1Cc1ccccc1 (stereo not drawn)
    0, 0
112	COCCN(CC(=O)N1CCc2sccc2C1c1ccc(C)cc1)S(=O)(=O)c1ccc(Cl)c([N+](=O)[O-])c1 (stereo not drawn)
    17, 17
113	COc1ccccc1-c1cc(=O)n(-c2nc3ccccc3s2)[nH]1
    -8, -16
114	O=C(CN1CCCC(Nc2ccc(F)cc2)C1)N1CCCCCC1 (stereo not drawn)
    7, 3
115	O=c1nc(SCc2ccc(F)cc2)c2c(n1Cc1cccnc1)CCC2
    6, 1
116	Cc1nc2ccccn2c1CN(C)C(=O)c1cc(COc2ccc(F)cc2F)on1
    -1, -4
117	c1cc(-c2noc(NC3CCCCC3)n2)ccn1
    1, -1

Exported in markdown: entries from further up.
| entry | mol | NPYLR7 ag | NPYLR7 ag max-min |
| --- | --- | --- | --- |
| 98 | CC(/C=C1\N=C(c2ccc(C)c([N+](=O)[O-])c2)OC1=O)=C\c1ccccc1 | 0 | 2 |
| 62 | O=C(COc1ccc(F)cc1F)N1CCN(c2ccc3nnc(-c4ccco4)n3n2)CC1 | 2 | 8 |

Not all compounds are listed, so the mix of outcomes need not match the whole.
